# Source: PubChem BioAssay (National Center for Advancing Translational Sciences (NCATS))
# TRPML1 agonist = human mucolipin-1 channel agonism; TRPML1-expressing cells, Ca2+ dye fluorescence, FDSS; host cell line not named in the record; reference of the full effect not given here; Q9GZU1; hit rate 0.12% among 410,000; AID 624414; activation, % (test concentration not listed); in the data active = activation above about 50%; inconclusive = about 30% to 50%; inactive = below about 30%; further: 0% is about no effect; the text of the record puts the active cut at 80%
# Target sequence (Q9GZU1 whole entry, looked up): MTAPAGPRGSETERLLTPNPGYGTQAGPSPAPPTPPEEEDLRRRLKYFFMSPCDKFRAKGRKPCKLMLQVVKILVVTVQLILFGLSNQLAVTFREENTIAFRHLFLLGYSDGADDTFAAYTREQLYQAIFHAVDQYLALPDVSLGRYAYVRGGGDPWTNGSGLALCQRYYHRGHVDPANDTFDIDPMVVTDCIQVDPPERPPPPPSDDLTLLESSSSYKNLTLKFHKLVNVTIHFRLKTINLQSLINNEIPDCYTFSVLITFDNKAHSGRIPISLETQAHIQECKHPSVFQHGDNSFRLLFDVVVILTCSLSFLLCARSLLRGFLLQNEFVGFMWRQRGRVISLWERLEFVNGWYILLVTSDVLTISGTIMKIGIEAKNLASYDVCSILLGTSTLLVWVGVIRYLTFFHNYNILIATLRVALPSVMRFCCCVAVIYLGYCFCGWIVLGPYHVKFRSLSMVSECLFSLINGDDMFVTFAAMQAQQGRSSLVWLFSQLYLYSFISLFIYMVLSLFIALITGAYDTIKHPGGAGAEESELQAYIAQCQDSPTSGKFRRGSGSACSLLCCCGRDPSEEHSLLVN
#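 Calcium fluorescence on an FDSS kinetic reader gave the read-out. Tet-induced TRPML1-DL cells were plated overnight, dye-loaded (Ca8 with quencher, 45-90 min, room temperature, dark), then read 110 s after compound addition, and again 110 s after 4uM final 54-4 (EC80).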
# TRPML1 inh = human mucolipin-1 channel inhibition | Q9GZU1 | TRPML1-inducible cells, Ca2+ dye fluorescence, FDSS; active compounds read low; inhibition of EC80 agonist-evoked calcium signal | activity change, negative = inhibition, % (concentration not given with the values) | hit rate 0.02% among 390,000 | AID 624415; in the data active means activity change below about -50%; inconclusive means about -30% to -50%; inactive means above about -30%;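 further: stimulus is agonist 54-4 at its EC80 concentration; on the % scale 0 is the no-effect control and ±100 the full control effect; the text of the record puts the active cut at -80%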
#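 Calcium fluorescence in TRPML1-DL cells induced overnight with Tet: a 110 s read after compound pin addition, then a 110 s antagonist read after challenge with 54-4 at 4 uM final (EC80).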
# TRPV1 potentiator = human TRPV1 potentiation; Q8NER1; potentiation, % at 8.33 µM; TRPV1-expressing cells, Fluo-8 calcium influx, capsaicin EC20 potentiation; host cell line not named in the record; control for the full effect not named in the record; AID 540277; hit rate 0.02% among 320,000; active means potentiation above 80%; inconclusive means 30% to 80%; inactive means below 30%; further: 0% is about no effect
#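 TRPV1-expressing cells were cultured overnight at 35.5C and loaded with Fluo-8 calcium dye for 40 to 90 min at room temperature. After a 10 s baseline, compound was added and calcium influx was read kinetically for 3 min (ex 480/em 520 nm).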
# Menin-MLL FL inh = displaces fluorescein MLL peptide from human menin; 290,000 tested, under 10 active; Fluorescence polarization, fluorescein-MLL peptide displacement from menin; AID 1766; FP activity change, % at 61.4 µM; inconclusive = falling polarisation curve, or a change in total fluorescence; inactive = total fluorescence flat and polarisation flat or rising; no compound was filed as active; the % refers to the polarisation; negative = inhibition;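 further: % of control where 0% means no effect; inhibitors lower the polarisation; unlabelled MLL peptide was the positive control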
# ClpP mod = qHTS Assay for Activators of ClpP; AID 651965, 2013; hit rate 1.9% among 340,000; Potency, µM (top dose mostly 57.5 µM), for the others: at the top dose activity change, negative = active; purified B. subtilis ClpP, FRET peptide cleavage, 20 min; ATP-dependent Clp protease proteolytic subunit (Bacillus subtilis (strain 168)), P80244; active = well fitted falling curve with a large enough effect; inconclusive = small, poorly fitted or top-dose-only effect; inactive = no such curve, though single readings can be large or run the other way; further: potency means the concentration at half of the fitted maximal effect; the source files actives as falling curves though it sought activators and does not explain the sign; nearly all actives have a fitted effect of over 65% in size; many hits overshoot -100%
# Target sequence (P80244 whole entry, looked up): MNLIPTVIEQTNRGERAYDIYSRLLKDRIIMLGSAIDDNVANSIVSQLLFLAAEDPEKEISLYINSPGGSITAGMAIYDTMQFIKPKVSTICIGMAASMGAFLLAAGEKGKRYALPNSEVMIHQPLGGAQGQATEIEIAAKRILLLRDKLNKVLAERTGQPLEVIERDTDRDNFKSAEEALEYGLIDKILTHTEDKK
#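 Buffer: 100 mM Tris/HCl pH8, 100 mM KCl, 0.05% low protease BSA, 2.5% glycerol, 0.01% Tween-20. ClpP 10 microg/mL final; 20 min RT; delta FRET normalized to ADEP and DMSO controls.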
# PINK1 expr mod = changes PINK1 expression; PINK1 immunofluorescence, high-content cytometry, 24 h; Potency, µM (titrated, usually from 76.6 µM), for the others: at the top dose activation (PINK1 increase), hits mostly activators; hit rate 0.2% among 410,000; AID 624263; active = well fitted activation curve with a large enough effect; inconclusive = small, poorly fitted or top-dose-only effect; inactive = flat fitted curve, though single readings scatter; cell line not stated here;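 further: potency means the concentration at half of the fitted maximal effect; % of control where 0% means no effect; nearly all actives have a fitted effect of over 65% in size; a mitochondrial uncoupler was the plate control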
#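 Cells are seeded, rested 12 hours, then given compound at five concentrations or DMSO for 24 hours. After fixation, blocking and antibody staining, PINK1 amount and mitochondrial localization are scored; CCCP serves as control.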
# Sfp inh = inhibitors of Bacillus subtilis Sfp phosphopantetheinyl transferase | Q9F4F7 | Biochemical Sfp PPTase activity, qHTS | Potency, µM, inactives show max response, negative = inhibition, most hits filed as inhibitors | hit rate 3.5% among 310,000; active means well fitted inhibition curve with a large enough effect; inconclusive means small, poorly fitted or top-dose-only effect, or another doubt; inactive means no such curve, though single readings can be large or run the other way;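 further: the enzyme is Sfp with the accession as filed and its product quenches rhodamine fluorescence; potency means the concentration at half of the fitted maximal effect; 0% = enzyme reaction without inhibitor and -100% = no enzyme wells; top concentration of the series not given in the record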
#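 Fluorescence-quenching assay with 15 nM Sfp, 5 uM rhodamine-CoA and 12.5 uM BHQ-2-labelled ybbR peptide in pH 7.6 Hepes/MgCl2 buffer. Enzyme was pre-incubated with compound for 15 min at room temperature. Rate was taken from the 30-min fluorescence change (525/598 nm).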
# Numbers without * were called inactive; ? = inconclusive; . = no result given.
no.	Structure	TRPV1 potentiator	TRPML1 inh	ClpP mod	PINK1 expr mod	Sfp inh	Menin-MLL FL inh	TRPML1 agonist
1	Nc1ccccc1CNc1nc(NCCO)nc2c1ncn2CCN1CCOCC1	-13	4	0.0%	3.7%	22%	6.6	0.4
2	CCOC(=O)N1CCN(C(=O)c2ccc3ccccc3c2)CC1	?	6	-4.8%	0.9%	-1%	0.5	0.9
3	O=C(Nc1ccc(Cl)cn1)c1ccc(-c2ccc(Cl)c(Cl)c2)o1	.	-2	?	?	.	.	-0.5
4	COc1ccccc1NC(=O)CSc1nnc(Cn2cnc3ccccc32)o1	28	-15	.	-0.3%	24%	-3.5	-0.2
5	CC(C)CC(=O)Nc1cccc(-c2cn3cccnc3n2)c1	.	38	4.1%	-1.4%	.	.	-1.0
6	O=C(CSc1ccc(-c2cccnc2)nn1)N1CCCCCC1	1	-2	.	0.1%	14%	-0.8	-0.1
7	O=C(Nc1nc2cc3c(cc2s1)OCO3)C1CC1	-23	29	.	11%	0%	-0.9	0.6
8	O=C(CC1SCCNC1=O)Nc1cc(Cl)cc(Cl)c1 (centres undefined)	-15	15	2.0%	0.5%	16%	6.5	-0.6
9	FC(F)(F)c1ccccc1-c1ccc2ncnc(NCc3cccnc3)c2c1	.	.	.	-0.2%	-7%	-6.2	.
10	O=C(NNC(=O)c1cc(Br)ccc1Cl)c1csc(N2CCOCC2)n1	-12	-3	-1.3%	0.0%	13%	.	0.3
11	COc1cc(/C=N/NC(=O)c2nnn(-c3nonc3N)c2-c2cccs2)ccc1O	20	2	-1.1%	1.9%	18%	.	-0.8
12	Cc1cn(S(=O)(=O)c2ccc(Br)c3ccccc23)cn1	-7	.	.	.	14%	1.3	.
13	CCOC(=O)/C(C#N)=C1/C(=O)N(Cc2ccccc2)c2ccccc21	-4	-18	.	-0.4%	45µM*	-5.0	0.2
14	CSc1nsc(/C=C/Nc2ccc(C)c(C)c2)c1C#N	14	11	5.7%	2.9%	2%	?	0.2
15	CCOC(=O)c1[nH]cnc1C(=O)NC1CCCCC1	-1	10	-0.6%	-0.2%	5%	3.0	-1.0
16	Cc1c2cnn(-c3ccccc3)c(=O)c2c(C)n1CC(=O)NCc1ccc(Cl)cc1	.	34	-5.1%	13%	.	.	-0.8
17	CC1=C(C(=O)Nc2cc(C)ccn2)C(c2cnn(C)c2)C2=C(CC(c3ccccc3)CC2=O)N1 (centres undefined)	-4	-9	32µM*	0.8%	15%	1.8	-0.2
18	O=C(Cc1nc(=O)c2ccccc2s1)Nc1ccccc1	-19	2	-1.3%	16%	24%	0.7	-0.5
19	COCCn1c(SCC(=O)NC2CCCCC2C)nc2ccccc2c1=O (centres undefined)	2	14	-0.4%	0.0%	13%	-0.1	0.5
20	Cc1onc(-c2c(F)cccc2Cl)c1C(=O)Nc1cccc(S(=O)(=O)NC2=NCCC2)c1	-7	-2	0.4%	0.4%	.	.	-0.5
21	Cc1cccc(OCC(=O)OCC(=O)N2CCCc3ccccc32)c1C	2	13	0.3%	5.6%	.	.	2.7
22	COc1cc(/C=N/NC(=O)CN2CCCCC2)ccc1OCc1ccc(Br)cc1	-2	22	-1.4%	1.2%	-11%	1.9	1.5
23	CCCn1c(NC(=O)c2ccc(F)cc2)nc2ccccc21	-8	3	.	2.3%	23%	3.8	1.4
24	O=C(CP(=O)(c1ccccc1)c1ccccc1)Nc1cccc(CP(=O)(c2ccccc2)c2ccccc2)c1	5	13	-1.6%	-2.0%	15%	-0.4	-0.3
25	O=C1C2C3CCC(C3)C2C(=O)N1Cc1ccco1 (centres undefined)	-9	-7	?	1.2%	-6%	-1.4	0.0

# Reprinted from the part before: two compounds, followed by the next part.
no.	Structure	TRPV1 potentiator	TRPML1 inh	ClpP mod	PINK1 expr mod	Sfp inh	Menin-MLL FL inh	TRPML1 agonist
24	O=C(CP(=O)(c1ccccc1)c1ccccc1)Nc1cccc(CP(=O)(c2ccccc2)c2ccccc2)c1	5	13	-1.6%	-2.0%	15%	-0.4	-0.3
25	O=C1C2C3CCC(C3)C2C(=O)N1Cc1ccco1 (centres undefined)	-9	-7	?	1.2%	-6%	-1.4	0.0
26	COc1ccc(Cl)cc1NC(=O)c1nn(C)c2c1CS(=O)(=O)c1ccccc1-2	.	0	-4.7%	2.2%	.	.	0.0
27	CCCNC(=O)C1(C)CCCN(C(=O)c2ccc3snnc3c2)C1 (centres undefined)	.	.	2.7%	-0.3%	.	.	-1.0
28	COCCCN=Cc1c(C)[nH]n(-c2ccc(Br)c(C)c2)c1=O	5	6	-2.0%	3.7%	-29%	-5.9	-0.3
29	Cn1c(=O)c2c(nc(NNC(=O)C(F)(F)F)n2C)n(C)c1=O	-1	-13	.	0.9%	0.89µM*	-2.5	0.0
30	CNC[C@@H]1Oc2ccc(NC(=O)Nc3c(C)noc3C)cc2CC(=O)N([C@H](C)CO)C[C@H]1C	.	-4	-2.5%	0.2%	.	.	0.0
31	Cc1csc(NC(=O)CCC(=O)N(CC(=O)NC2CCCCC2)c2ccccc2)n1	9	-14	.	-1.6%	12%	0.0	1.2
32	N#Cc1c(-c2ccccc2)cc(-c2ccccc2)nc1SCC(O)CS(=O)(=O)Cc1ccccc1 (centres undefined)	.	-13	?	0.6%	.	.	-0.4
33	C#CCOCCOCCOCCNc1nc(N2CCN(C(=O)Cn3cc(CCCCN)nn3)CC2)nc(N2CCN(C(=O)Cn3cc(CC(C)O)nn3)CC2)n1 (centres undefined)	6	12	2.6%	-0.7%	-9%	3.2	-0.5
34	COc1ccc(-c2nc(CS(=O)CC(=O)NC3CCCCC3C)c(C)o2)cc1 (centres undefined)	-29	-5	-18%	1.8%	-9%	-3.1	-0.7
35	CCCOc1ccc(-c2nn(-c3ccccc3)cc2/C=C2\SC(N)=NC2=O)cc1	-9	8	.	1.1%	-4%	3.1	1.4
36	Cc1ccc(Nc2nc(N)c3ccccc3n2)cc1C	-3	59	-5.5%	2.5%	-25%	6.1	0.0
37	O=C(CCC(=O)N1CCSc2ccccc21)Nc1cccc(F)c1	-1	-6	-0.9%	0.4%	10%	-0.1	0.2
38	O=C(OCc1cccc(F)c1)c1cc2ccccc2cc1O	3	8	.	5.5%	-5%	0.5	0.6
39	COc1cc(-n2cnnn2)ccc1S(=O)(=O)N1CCOCC1	-13	76	-2.2%	.	0%	2.9	-0.3
40	CCCCCC(=O)Nc1cccc(C2=NOC3(C2)C[C@@H](C(N)=O)N(C(=O)CC(c2ccccc2)c2ccccc2)C3)c1 (some centres undefined)	-1	6	-13%	5.6%	12%	2.9	1.7
41	COc1ccccc1/C=N/NC(=O)c1nnn(-c2nonc2N)c1-c1ccccc1	.	6	-2.4%	4.4%	.	.	-0.1
42	COc1ccc(N2CCN(C(=O)CCNS(=O)(=O)c3ccc(C)cc3)CC2)cc1	-8	-17	-3.0%	0.4%	5%	1.7	1.7
43	O=C(N/N=C/c1c(O)ccc2ccccc12)c1cccc(C(F)(F)F)c1	-19	19	-2.7%	?	12%	.	92*
44	CCOC(=O)c1ccccc1NC(=O)CN1C(=O)NC(C)(CCc2ccccc2)C1=O (centres undefined)	-7	12	?	1.6%	.	.	0.8
45	CCOC(=O)C1CCN(C(=O)CSc2nc3ncccc3[nH]2)CC1	-9	-10	0.0%	-0.3%	5%	3.4	-0.9
46	CSCC[C@H](NC(=O)c1ccc(Cl)c([N+](=O)[O-])c1)c1nc2ccccc2[nH]1	-1	-10	1.6%	-2.8%	-6%	2.7	-0.8
47	CC(=O)N1CCC(=NNc2ccnc3cc(Cl)ccc23)CC1	4	3	.	-0.4%	2%	-4.6	-0.5
48	N#C/C(=C\c1ccc(C#N)cc1)C(=O)N1CCCC1	11	.	.	.	?	2.8	.
49	COc1cc(C(=O)Nc2cccc(OCc3cc(=O)n4cc(C)sc4n3)c2)cc(OC)c1OC	.	1	5.2%	5.0%	.	.	-0.3
50	COc1ccc(NC(=O)c2ccc3c(c2)OCCO3)cc1OC	1	-11	.	-0.4%	7%	1.3	0.4
51	Cc1ccc(S(=O)(=O)N2CCC(C(=O)NCCN3CCOCC3)CC2)cc1C	-6	-5	-2.7%	2.1%	15%	.	0.4
52	CCCCCCC1(C)NC(c2ccc3c(c2)OCO3)=CC(c2cc(Br)ccc2O)N1 (centres undefined)	8	-7	.	1.6%	.	.	1.5
53	NC(=O)NC(c1ccccc1)c1cccc2ccccc12 (centres undefined)	16	20	-1.3%	?	0%	0.1	0.7
54	COc1cc2c(cc1OC)C(C1(O)CCCCC1)NCC2 (centres undefined)	10	3	-3.2%	1.2%	16%	2.0	-0.1
55	COc1ccc(CC(N)c2csc(NC(=O)NC(c3ccccc3)c3ccccc3)n2)cc1 (centres undefined)	.	.	-2.6%	-1.2%	.	.	-0.3
56	C/C=C/c1ccc(OCC(=O)Nc2ccncc2)c(OC)c1	0	.	-0.8%	0.6%	0%	0.1	.
57	N#Cc1nc(N2CCCC2)nc(N(c2ccccc2)c2ccccc2)n1	.	.	-15%	10%	.	.	-0.6
58	COc1ccc(C)cc1NC(=O)c1ccc2c(c1)C(=O)N(Cc1ccncc1)C2=O	-19	-4	0.3%	0.7%	.	.	-0.4
59	C[C@H](O)[C@@H]1CN2CCc3c([nH]c4ccccc34)[C@@H]2C[C@@H]1N(C)C(=O)Nc1ccc(Br)cc1	.	.	-9.7%	3.3%	.	.	2.4
60	O=C(O)CCCC(=O)N1CCN(c2ncccn2)CC1	.	13	-3.3%	1.1%	7%	1.2	-0.4
61	Cc1ccc(S(=O)(=O)Nc2ccc3c(c2)n(C)c(=O)n3C)c(C)c1	4	12	.	3.3%	-3%	1.0	-0.6
62	COc1cc2c3c(n(C)c(=O)c2cc1OC)-c1cc2c(cc1C3=O)OCO2	.	-8	-20%	1.6%	.	.	-0.3
63	CCCN(CC(=O)Nc1ccccc1OC)C(=O)c1cccc(S(=O)(=O)Nc2ccc(OC)cc2)c1	22	-8	0.6%	-1.6%	.	.	-0.2
64	CCOCCCNC(=O)Cn1cnc2sc(C)c(S(=O)(=O)N3CCN(c4ncccn4)CC3)c2c1=O	7	-7	.	1.5%	10%	-0.8	2.2
65	S=C(NCc1ccccc1)N1CCc2ccccc2C1	-3	4	0.7%	2.2%	1%	-2.1	-0.7
66	C=CCn1c(SCC(N)=O)nnc1-c1cc(Br)ccc1O	0	-10	0.5%	4.2%	0%	0.1	-0.5
